Screens from PubChem.
HCMV NEC inh = cytomegalovirus nuclear egress complex inhibition; HTRF UL50-UL53 interaction, normalized percent inhibition; inhibition, % (no concentration beside the values); hit rate 0.15% among 190,000; AID 1918969;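 active = both replicates at 50% or more, plus weaker picks with an unusually low signal ratio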;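 also: stock transfer was 100 nL into about 20 µL; 0% = negative control wells and 100% = wells with untagged competitor protein; inactives centre near -12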
GIV Gai3 FP = blocks GIV peptide binding to rat Galpha-i3; P08753; Galpha-i3/FITC-GIV peptide fluorescence polarization, 90 min; hits give low values; scaled: aluminum fluoride 0%, vehicle 100%; percent of control (FP), % (concentration not given with the values); hit rate 0.42% among 210,000;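 active = replicate mean at 85% of control or lower, very high polarization wells dropped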;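 also: wells of about 15 µL received 100 nL stock; the first replicate is given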
Target sequence (P08753 whole entry, looked up): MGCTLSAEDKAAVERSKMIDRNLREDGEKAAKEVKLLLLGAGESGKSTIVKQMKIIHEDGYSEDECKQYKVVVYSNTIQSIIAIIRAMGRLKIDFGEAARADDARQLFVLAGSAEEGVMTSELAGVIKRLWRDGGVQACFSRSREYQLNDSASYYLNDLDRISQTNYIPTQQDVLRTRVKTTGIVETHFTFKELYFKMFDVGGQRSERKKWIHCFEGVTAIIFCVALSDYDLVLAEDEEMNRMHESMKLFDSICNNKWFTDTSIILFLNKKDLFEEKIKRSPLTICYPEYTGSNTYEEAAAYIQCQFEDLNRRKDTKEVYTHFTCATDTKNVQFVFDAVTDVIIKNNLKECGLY
Sa growth inh = inhibitors of Staphylococcus aureus growth at 42 °C; S. aureus RN4220 growth, OD600, 20 h; hits give low values; relative growth, % (test concentration not listed); hit rate 0.53% among 170,000; AID 720641;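 active = growth at 42 °C up to 50% and 20 or more points under that at 30 °C, or under 10% at both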;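 also: 300 nL library stock went into each well; scaled to the means of positive and negative controls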
Sa growth inh second temp = further read-out of Sa growth inh, marked with its call; relative growth, %; measured here: growth at 30 °C;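 optical density after 20 h as mean of two plates; 100% = untreated growth and lower means inhibition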
* hit, by the source's call; & = joins results of further samples.

What do the screens show for `CCCCS(=O)(=O)CC(O)CSc1nc(-c2ccc(C)cc2)cc(-c2ccccc2)c1C#N` (stereo unspecified)?
HCMV NEC inh: -57; GIV Gai3 FP: 108; Sa growth inh: 94; Sa growth inh second temp: 87

How did O=C(/C=C/c1ccccc1)N1CCN(S(=O)(=O)c2ccc(F)cc2)CC1 do in these assays?
HCMV NEC inh: -14; GIV Gai3 FP: 102; Sa growth inh: 115; Sa growth inh second temp: 99

Results for Cc1onc(-c2cccnc2)c1C(=O)Nc1ccccc1C(=O)c1ccccc1 ?
HCMV NEC inh: -3; GIV Gai3 FP: 107

How did CC(=O)Nc1ccc(SCC(=O)N(C)C2CCCCC2)cc1 do in these assays?
HCMV NEC inh: -1; Sa growth inh: 79; Sa growth inh second temp: 85

What do the screens show for `Cc1cccc(N2C(=O)CN(CCc3ccc(S(N)(=O)=O)cc3)[C@H]3CS(=O)(=O)C[C@H]32)c1`?
HCMV NEC inh: 6; GIV Gai3 FP: 104

Results for O=C(NCCN1C(=O)S/C(=C\c2ccc(Cl)c(Cl)c2)C1=O)C1=COCCO1 ?
HCMV NEC inh: -3; Sa growth inh: 93; Sa growth inh second temp: 93

How did COc1ccc(C2CC(c3ccc(OC)c(OC)c3)=NN2C(=O)c2ccccc2)cc1 (stereo unspecified) do in these assays?
HCMV NEC inh: -13; GIV Gai3 FP: 103

Results for COc1ccccc1Nc1nc2nonc2nc1Nc1ccc(C)c(Cl)c1 ?
HCMV NEC inh: -15; GIV Gai3 FP: 101

Results for O=S(=O)(c1ccc(F)cc1)N1CCCC1 ?
HCMV NEC inh: 6; GIV Gai3 FP: 104&88; Sa growth inh: 109; Sa growth inh second temp: 92

Results for O=C(CSc1cccc[n+]1[O-])c1cccs1 ?
HCMV NEC inh: -27; Sa growth inh: 75; Sa growth inh second temp: 80

What do the screens show for `Cc1ccc(-c2nc(NCCC3=CCCCC3)c3ccccc3n2)cc1`?
GIV Gai3 FP: 101; Sa growth inh: 58; Sa growth inh second temp: 58

What do the screens show for `CCOc1ccc(/C=C2/SC(=S)N(CC(=O)O)C2=O)cc1`?
HCMV NEC inh: -45; GIV Gai3 FP: 99

How did COc1cccc(N2CC(NC(=O)c3ccc(S(=O)(=O)N4CCCCC4)cc3)CC2=O)c1 (stereo unspecified) do in these assays?
GIV Gai3 FP: 99; Sa growth inh: 110; Sa growth inh second temp: 88

What do the screens show for `COCCn1c(SCC(=O)c2c[nH]c3ccccc23)nc2cc(C(=O)NC(C)C)ccc2c1=O`?
GIV Gai3 FP: 118; Sa growth inh: 76; Sa growth inh second temp: 90

What do the screens show for `O=C(Nc1ccccn1)C1(c2ccccc2)CCCC1`?
HCMV NEC inh: -17; GIV Gai3 FP: 99; Sa growth inh: 101; Sa growth inh second temp: 93

How did COCCNC(=O)c1nn2c(C(F)(F)F)cc(-c3ccccc3)nc2c1Br do in these assays?
HCMV NEC inh: -23; GIV Gai3 FP: 98

How did CCCC(=O)Nc1nc2ccc(CCC(=O)Nc3cc(Cl)c(OC)cc3OC)cc2s1 do in these assays?
HCMV NEC inh: -27; GIV Gai3 FP: 102

How did CCN(C(=O)CSc1nc2ccccc2n1CC(=O)N(C)C1CCCCC1)c1ccccc1 do in these assays?
GIV Gai3 FP: 111; Sa growth inh: 103; Sa growth inh second temp: 100

Results for O=C(O)c1cc(C=Nc2ccc3c(c2)OCCOCCOCCO3)ccc1O ?
GIV Gai3 FP: 101; Sa growth inh: 121; Sa growth inh second temp: 94

Results for O=C(NCCCN1CCN(c2ccccc2F)CC1)C1CCN(S(=O)(=O)c2cccc3cccnc23)CC1 ?
HCMV NEC inh: 0; GIV Gai3 FP: 100; Sa growth inh: 108; Sa growth inh second temp: 86

Ordered by number of heavy atoms (rising): some entries from above
Results for O=S(=O)(c1ccc(F)cc1)N1CCCC1 ?
HCMV NEC inh: 6; GIV Gai3 FP: 104&88; Sa growth inh: 109; Sa growth inh second temp: 92

What do the screens show for `O=C(Nc1ccccn1)C1(c2ccccc2)CCCC1`?
HCMV NEC inh: -17; GIV Gai3 FP: 99; Sa growth inh: 101; Sa growth inh second temp: 93

What do the screens show for `CCOc1ccc(/C=C2/SC(=S)N(CC(=O)O)C2=O)cc1`?
HCMV NEC inh: -45; GIV Gai3 FP: 99

What do the screens show for `Cc1ccc(-c2nc(NCCC3=CCCCC3)c3ccccc3n2)cc1`?
GIV Gai3 FP: 101; Sa growth inh: 58; Sa growth inh second temp: 58

Results for COc1ccccc1Nc1nc2nonc2nc1Nc1ccc(C)c(Cl)c1 ?
HCMV NEC inh: -15; GIV Gai3 FP: 101

Results for O=C(O)c1cc(C=Nc2ccc3c(c2)OCCOCCOCCO3)ccc1O ?
GIV Gai3 FP: 101; Sa growth inh: 121; Sa growth inh second temp: 94

How did CCCC(=O)Nc1nc2ccc(CCC(=O)Nc3cc(Cl)c(OC)cc3OC)cc2s1 do in these assays?
HCMV NEC inh: -27; GIV Gai3 FP: 102

How did COc1cccc(N2CC(NC(=O)c3ccc(S(=O)(=O)N4CCCCC4)cc3)CC2=O)c1 (stereo unspecified) do in these assays?
GIV Gai3 FP: 99; Sa growth inh: 110; Sa growth inh second temp: 88

How did CCN(C(=O)CSc1nc2ccccc2n1CC(=O)N(C)C1CCCCC1)c1ccccc1 do in these assays?
GIV Gai3 FP: 111; Sa growth inh: 103; Sa growth inh second temp: 100

What do the screens show for `COCCn1c(SCC(=O)c2c[nH]c3ccccc23)nc2cc(C(=O)NC(C)C)ccc2c1=O`?
GIV Gai3 FP: 118; Sa growth inh: 76; Sa growth inh second temp: 90

Results for O=C(NCCCN1CCN(c2ccccc2F)CC1)C1CCN(S(=O)(=O)c2cccc3cccnc23)CC1 ?
HCMV NEC inh: 0; GIV Gai3 FP: 100; Sa growth inh: 108; Sa growth inh second temp: 86

Other entries.
What do the screens show for `O=C(O)CC1NC(=O)NC1=O` (stereo unspecified)?
HCMV NEC inh: -24; GIV Gai3 FP: 101; Sa growth inh: 101; Sa growth inh second temp: 89

What do the screens show for `FC(F)(F)c1cccc(Oc2nnc(-c3ccccc3)c3ccccc23)c1`?
HCMV NEC inh: 5; GIV Gai3 FP: 104

What do the screens show for `Cc1ccccc1CN1C(=O)C2(OCCCO2)c2ccccc21`?
GIV Gai3 FP: 98; Sa growth inh: 86; Sa growth inh second temp: 94

How did O=C(C1c2ccccc2Oc2ccccc21)N1CCCCC1 do in these assays?
HCMV NEC inh: -31; GIV Gai3 FP: 99; Sa growth inh: 115; Sa growth inh second temp: 85

What do the screens show for `O=C(NCCCN1CCCC1=O)c1cccc(Oc2ccccc2)c1`?
HCMV NEC inh: 5; Sa growth inh: 99; Sa growth inh second temp: 88

Results for Cc1nc(N2CCN(C)CC2)sc1C(=O)N(C)C ?
HCMV NEC inh: 12; Sa growth inh: 97; Sa growth inh second temp: 97

How did O=C(COC(=O)C12CC3CC(CC(Br)(C3)C1)C2)NC1CC1 do in these assays?
HCMV NEC inh: -12; Sa growth inh: 115; Sa growth inh second temp: 86

What do the screens show for `CCSc1nnc2c(n1)OC(c1cc3c(cc1Cl)OCO3)Nc1ccccc1-2` (stereo unspecified)?
GIV Gai3 FP: 98; Sa growth inh: 94; Sa growth inh second temp: 84

What do the screens show for `O=C(NCc1ccc(F)cc1)c1ccc2oc(=O)n(Cc3ccccc3)c2c1`?
GIV Gai3 FP: 103; Sa growth inh: 115; Sa growth inh second temp: 97

Results for CCOc1ccc(CNC(=O)Cn2c(=O)c3cccn3c3ccccc32)cc1 ?
HCMV NEC inh: 0; GIV Gai3 FP: 97; Sa growth inh: 84; Sa growth inh second temp: 81

Three entries from above, ordered by length of the SMILES, largest number first:
What do the screens show for `CCSc1nnc2c(n1)OC(c1cc3c(cc1Cl)OCO3)Nc1ccccc1-2` (stereo unspecified)?
GIV Gai3 FP: 98; Sa growth inh: 94; Sa growth inh second temp: 84

What do the screens show for `FC(F)(F)c1cccc(Oc2nnc(-c3ccccc3)c3ccccc23)c1`?
HCMV NEC inh: 5; GIV Gai3 FP: 104

What do the screens show for `O=C(NCCCN1CCCC1=O)c1cccc(Oc2ccccc2)c1`?
HCMV NEC inh: 5; Sa growth inh: 99; Sa growth inh second temp: 88

More entries.
How did O=C(Nc1ccc(Cl)cc1Cl)c1cc2nc3c(c(C(F)(F)F)n2n1)CCc1ccccc1-3 do in these assays?
GIV Gai3 FP: 97; Sa growth inh: 87; Sa growth inh second temp: 80

What do the screens show for `CN(C)C1(CNC(=O)c2cccc(NS(=O)(=O)c3ccc4c(c3)OCCO4)c2)CCCCC1`?
HCMV NEC inh: -18; Sa growth inh: 88; Sa growth inh second temp: 95

Results for c1ccc2c(c1)Oc1ccccc1C2N1CCOCC1 ?
HCMV NEC inh: -6; GIV Gai3 FP: 106; Sa growth inh: 101; Sa growth inh second temp: 91

How did COc1ccc(Br)cc1CNc1nc(-c2nnc(-c3ccc(C)cc3)o2)nc2ccccc12 do in these assays?
HCMV NEC inh: 18; GIV Gai3 FP: 106

Results for O=C(NCCN1CCCC1)C1CCN(c2ccc(F)cc2)C1=O (stereo unspecified) ?
HCMV NEC inh: -17; GIV Gai3 FP: 100

What do the screens show for `CCn1c(=O)c(-c2noc(C(=O)N3CCOCC3)n2)nn(-c2ccc(F)cc2)c1=O`?
HCMV NEC inh: -108; GIV Gai3 FP: 98

How did COc1ccc(NC(=O)c2ccc3cccc(O)c3n2)cc1Cl do in these assays?
HCMV NEC inh: -9; GIV Gai3 FP: 111; Sa growth inh: 115; Sa growth inh second temp: 98

Results for COc1ccc(C2CC(=O)N(c3ccc(F)cc3F)C(=O)C2)cc1 ?
HCMV NEC inh: -35; GIV Gai3 FP: 105

Results for CCOc1ccccc1Nc1sc(C(=O)c2ccccc2)c(N)c1S(=O)(=O)c1ccc(C)cc1 ?
GIV Gai3 FP: 106; Sa growth inh: 108; Sa growth inh second temp: 85

How did CN(C(=O)c1ccc(Nc2ccnc(-c3ccc(F)cc3)n2)cc1)C1CCCCC1 do in these assays?
HCMV NEC inh: -4; GIV Gai3 FP: 99

Results for Cc1ccc(C)n1-c1ccc(C(=O)NCc2cccnc2)cc1 ?
HCMV NEC inh: -16; Sa growth inh: 92; Sa growth inh second temp: 88

What do the screens show for `COC(=O)c1ccc(C(=O)OC)c(NC(=O)CN(c2ccccc2)S(=O)(=O)N(C)C)c1`?
HCMV NEC inh: 1; GIV Gai3 FP: 101; Sa growth inh: 95; Sa growth inh second temp: 95

What do the screens show for `O=C(NCc1cccc(F)c1)C1CCN(c2nn3cc(-c4ccc(F)cc4)nc3s2)CC1`?
GIV Gai3 FP: 106; Sa growth inh: 100; Sa growth inh second temp: 86

Results for CCOC(=O)C1CCN(C(c2ccccc2OC)c2c(O)cc(C)n(CCOC)c2=O)CC1 (stereo unspecified) ?
GIV Gai3 FP: 97; Sa growth inh: 82; Sa growth inh second temp: 90

What do the screens show for `CC(C)CN1C(=O)/C(=C\c2ccc(-c3ccc(S(N)(=O)=O)cc3)o2)SC1=S`?
HCMV NEC inh: -11; Sa growth inh: 68; Sa growth inh second temp: 92

How did COc1cccc(NS(=O)(=O)c2ccc3[nH]c4c(c3c2)CCCCCC4)c1 do in these assays?
GIV Gai3 FP: 106; Sa growth inh: 94; Sa growth inh second temp: 97

How did COc1ccc(CNC(=O)c2cc3c(-c4ccc(Cl)cc4)nn(C)c3s2)cc1 do in these assays?
HCMV NEC inh: -2; GIV Gai3 FP: 103; Sa growth inh: 99; Sa growth inh second temp: 92

Results for CCN1CCN(CCNC(=O)C(C)N2C(=O)CCCc3ccccc32)CC1 (stereo unspecified) ?
HCMV NEC inh: 0; GIV Gai3 FP: 115

What do the screens show for `Cc1ccc(C)c(CN2C(=O)C(=O)c3ccccc32)c1`?
GIV Gai3 FP: 100; Sa growth inh: 111; Sa growth inh second temp: 81

Results for CCOn1c(=O)c(-c2ccccc2)[n+]([O-])c2ccccc21 ?
HCMV NEC inh: -74; GIV Gai3 FP: 107; Sa growth inh: 95; Sa growth inh second temp: 90

Results for CC(C)NS(=O)(=O)c1ccc2c(c1)CCN2C(=O)CCC(=O)N1CCOCC1 ?
HCMV NEC inh: -9; GIV Gai3 FP: 101

What do the screens show for `O=C(Nc1nc2ccc(NC(=O)C3CC3)cc2s1)c1ccccc1`?
HCMV NEC inh: -26; GIV Gai3 FP: 100

What do the screens show for `Cc1noc(NS(=O)(=O)c2ccc(NC(=O)COc3ccccc3Br)cc2)c1C`?
HCMV NEC inh: -57; GIV Gai3 FP: 107; Sa growth inh: 97; Sa growth inh second temp: 81

Results for CCOC(=O)Cn1c(=O)n(CC2CCCO2)c2nc(-c3ccc(OCC)cc3)nc(C(N)=O)c21 (stereo unspecified) ?
GIV Gai3 FP: 107; Sa growth inh: 89; Sa growth inh second temp: 91

Results for Cc1cccc(N(C)C(=O)CS(=O)(=O)c2cccc3nsnc23)c1 ?
GIV Gai3 FP: 104; Sa growth inh: 92; Sa growth inh second temp: 85

What do the screens show for `CCOc1c(Nc2cccc(C)c2C)c(=O)c1=O`?
HCMV NEC inh: -34; GIV Gai3 FP: 102

Results for CCOC(=O)c1c(NC(=O)CS(=O)(=O)c2cn(CC)c3ccccc23)sc2c1CCCC2 ?
GIV Gai3 FP: 102; Sa growth inh: 91; Sa growth inh second temp: 84

Results for CC1(C(=O)NC2CCCC2)CCC(=O)N1Cc1cccnc1 (stereo unspecified) ?
HCMV NEC inh: -13; GIV Gai3 FP: 107; Sa growth inh: 90; Sa growth inh second temp: 96

How did CC(=O)N1CCCc2cc(S(=O)(=O)N3CCC(N(C)C(C)C)CC3)ccc21 do in these assays?
GIV Gai3 FP: 109&102; Sa growth inh: 122; Sa growth inh second temp: 99
